Assay outcomes (PubChem)
CSC inhib – blocks cancer stem cells; cancer stem cell-like cells viability, luminescence; 300,000 compounds, 1.1% hits; inhibition, % at 7.5 µM; AID 2717;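 active = mean at 75% or more and at least half the replicates too; tested in HMLE shEcad cells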;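 note: 0% = median of negative and 100% = median of positive control wells; the first replicate is given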
Yeast UUG start – alters start codon recognition fidelity in yeast; activity score, % at 18.7 µM; AID 602363; 350,000 compounds, 0.13% hits; S. cerevisiae UUG-firefly luciferase reporter, luminescence/redox ratio;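 active = replicate mean at a twofold rise or more, about +100% in these data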;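 note: firefly luciferase made from a UUG start codon reports start codon fidelity; reporter light over untreated wells divided by growth signal over untreated wells; some hits fall short of that in this replicate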
MT1-MMP act inh – inhibitors of human MT1-MMP activation. HT1080 RFP-PRO-GFP cells, GFP/RFP ratio fluorescence, overnight; percent of plate control window, DMSO zero. GFP/RFP ratio change, % at 20 µM. P50281. 360,000 compounds, 0.061% hits;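 active = GFP/RFP ratio change of at least 30% with cell ATP level not reduced by more than half and red fluorescence within 50% of control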; note: strong numbers were not always called active
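Material: RFP-PRO-GFP reporter HT1080 cells. Dosing: single-point 20 µM compound, 1% DMSO. Controls: DMSO and RFP-L50D-GFP cell wells. Timing: cells overnight before dosing, compound overnight, 37 °C, 5% CO2. Measure: GFP/RFP fluorescence ratio.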
eIF4H inh – inhibitors of RNA binding by human eIF4H; eIF4H fluorescence polarization binding assay; inhibition, % at 35 µM; 290,000 compounds, 0.94% hits; AID 2012;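 active = 50% or more with normal probe brightness, or confirmed in later tests; about a fifth of its hits are not listed in these tables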;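 note: calls also rest on retests at 20 µM and on dose response follow-up; 0% = protein and probe with vehicle and 100% = probe without protein; strong numbers were not always called active; many hits fall short of the cut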
PABP FP inh – PABP-poly(A) binding inhibition | P11940 | PABP-poly(A) RNA binding, fluorescence polarization | inhibition, % at 35 µM | 290,000 compounds, 1% hits | AID 2014;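 active = 50% or more with normal probe brightness, or confirmed in later tests; about a fifth of its hits are not listed in these tables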;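 note: calls also rest on retests at 20 µM and on dose response follow-up; controls were probe without protein and protein plus probe with vehicle; some compounds called inactive have numbers as strong as hits; many hits fall short of the cut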
Target sequence (P11940 whole entry, looked up): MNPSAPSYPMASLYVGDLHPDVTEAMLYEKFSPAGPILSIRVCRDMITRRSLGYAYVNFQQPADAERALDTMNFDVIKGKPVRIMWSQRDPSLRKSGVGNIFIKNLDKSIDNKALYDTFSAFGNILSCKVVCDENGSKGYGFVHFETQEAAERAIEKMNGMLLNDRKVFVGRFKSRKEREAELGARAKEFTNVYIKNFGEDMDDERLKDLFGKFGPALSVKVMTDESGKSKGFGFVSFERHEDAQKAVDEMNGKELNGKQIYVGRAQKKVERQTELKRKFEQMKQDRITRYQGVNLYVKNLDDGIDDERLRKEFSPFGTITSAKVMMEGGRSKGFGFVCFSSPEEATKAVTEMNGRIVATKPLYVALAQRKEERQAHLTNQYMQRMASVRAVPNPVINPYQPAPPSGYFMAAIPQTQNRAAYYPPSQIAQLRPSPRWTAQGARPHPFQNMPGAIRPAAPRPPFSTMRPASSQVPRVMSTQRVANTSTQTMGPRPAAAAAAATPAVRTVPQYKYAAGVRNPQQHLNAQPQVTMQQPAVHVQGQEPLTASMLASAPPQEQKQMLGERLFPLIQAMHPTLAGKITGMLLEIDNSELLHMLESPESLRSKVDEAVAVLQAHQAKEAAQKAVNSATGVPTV
HIV Env fusion – blocks HIV Env-driven cell-cell fusion | HeLa-JRFL Env/CEM21 cell fusion, luciferase | inhibition, % at 12.3 µM | 360,000 compounds, 1.1% hits | AID 651610;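 active = mean replicate inhibition score of at least 50 and every replicate individually at or above 50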;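 note: 0% = plate neutral controls and 100% = maraviroc near 300 nM; one replicate is shown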
Rce1 inh – yeast Ras-converting enzyme inhibition; 290,000 compounds, 0.27% hits; calls only; yeast membranes, quenched prenylated peptide cleavage fluorescence;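 active = fall in fluorescence gain of 50% or more versus controls, with final raw signal at or below 3038400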;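 note: plate controls were neutral control wells for no effect and wells lacking membranes for full effect; tested at 10 µM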
Target sequence (Q03530 whole entry, looked up): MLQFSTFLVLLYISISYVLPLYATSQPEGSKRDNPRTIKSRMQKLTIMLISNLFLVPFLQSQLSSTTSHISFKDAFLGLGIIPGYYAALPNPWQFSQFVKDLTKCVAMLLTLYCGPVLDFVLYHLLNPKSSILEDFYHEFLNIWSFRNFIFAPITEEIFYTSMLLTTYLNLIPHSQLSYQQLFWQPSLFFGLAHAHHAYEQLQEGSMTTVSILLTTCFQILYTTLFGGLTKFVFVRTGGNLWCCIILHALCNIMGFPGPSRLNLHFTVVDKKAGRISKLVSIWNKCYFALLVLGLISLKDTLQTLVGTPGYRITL
eIF4H inh retest – further read-out of eIF4H inh, marked with its call; inhibition, %; compound at 20 µM; confirmation average;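 mean of two retest wells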
PABP FP inh retest – recorded beside PABP FP inh, whose call it bears; inhibition, %; compound at 20 µM; confirmation repeats;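 mean of two retest wells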
MT1-MMP act inh RFP – further read-out of MT1-MMP act inh, marked with its call; RFP signal change, %; measured here: RFP expression control read;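 0 = vehicle wells; hits needed this value within 50% of zero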
* = called active by the depositor; i = inactive; . = no result given. Outcome played no part in choosing rows; 3% or so of the library scored in one or more.

SMILES	CSC inhib	Yeast UUG start	MT1-MMP act inh	MT1-MMP act inh RFP	eIF4H inh	PABP FP inh	HIV Env fusion	Rce1 inh	others
COc1ccc(C2Nc3ccccc3NC3=C2C(=O)CC(C)(C)C3)cc1OC (configuration not stated)	-1	-16	-11	-2	8	12	-57	i
CCC(C)NCCOCCOc1ccc(Cl)c2ccccc12 (configuration not stated)	.	-46	-6	1	8	3	36	i
CCCCOP(=O)(OCCCC)C(O)c1ccc(Br)cc1 (configuration not stated)	-10	.	2	-2	-3	4	.	i
c1coc(-c2ccnc(-n3cccc3)n2)c1	-3	-11	-1	0	-1	-8	-16	i
[O-][n+]1onc2c1CCc1nnc(-c3ccccc3)cc1-2	11	-24	1	0	-10	4	.	i
COc1cccc(CN2CCN(Cc3ccc(O)c(OC)c3)CC2CCO)c1 (configuration not stated)	.	.	-2	2	-16	-10	-5	i
Cc1csc(C(C)NC(=O)c2ccc(OC3CCN(CCc4ccccc4)CC3)cc2)n1 (configuration not stated)	14	-12	3	2	1	0	1	i
CC(C)N1CCN(C(=O)c2ccc(NC(=O)c3ccc(Br)o3)cc2)CC1	-19	6	1	5	.	.	-11	.
Cc1cccc(C)c1NC(=O)NCCCN1CCN(c2ccccc2)CC1	3	-14	3	3	-10	-7	6	i
COC(=O)c1ccc(CSc2nnc(-c3ccncc3)n2Cc2ccccc2)o1	-14	-21	1	4	-5	-1	-87	i
COc1ccc(Cl)cc1NC(=O)CN(C)C(=O)C1CC1	-10	-13	2	4	.	.	4	.
CC(C)CN(CC(C)C)S(=O)(=O)N1CCC(C(=O)NCc2ccco2)CC1	.	.	0	2	-5	6	8	i
Cc1cccnc1NC(=S)NC(=O)c1cccs1	-6	-17	-3	-1	-4	3	.	i
Cc1noc(C)c1C(=O)OCC(=O)Nc1ccccc1Oc1ccccc1	8	-9	4	-2	-9	6	.	i
CCOC(=O)c1ccccc1NC(=O)COC(=O)c1ccccc1C(=O)N(C)c1ccccc1	.	45	7	-4	.	.	22	i
CCOCCOC(=O)c1[nH]c2c(c1C)C(=O)CC(c1ccc(OC)c(OC)c1)C2 (configuration not stated)	3	1	-1	-25	5	0	16	i
CCc1cc(CNC(=O)c2ccc(OC3CCN(CCc4ccccc4)CC3)cc2)on1	-6	-14	1	-4	49	-1	1	i
CCCn1c2ccccc2c2cnn(CC(=O)NC3CCCCC3)c(=O)c21	-7	-28	1	-1	-16	-2	-3	i
COc1cccc(/C=c2\sc3nc(-c4cccs4)nn3c2=O)c1OC	-6	1	-1	2	0	4	19	i
COc1ccc(C2OC(=O)CC2C(=O)NCc2ccc(Cl)cc2)cc1OC (configuration not stated)	-17	-20	1	4	-3	15	-15	i
COc1ccc(C)cc1NS(=O)(=O)c1cc(C)ccc1C	-2	.	0	-2	-8	-7	5	i
N/C(=N\N=C\c1ccco1)SC1CC(=O)N(c2ccc(C(=O)O)cc2)C1=O (configuration not stated)	9	.	2	4	2	-7	24	i
COc1ccc(C2CCCN2C(=O)Nc2ccc(C)c(C)c2)cc1OC (configuration not stated)	10	-10	-1	-1	-8	-5	24	i
CCc1nc2c(OCC=C(C)C)cccn2c1N(C)C(=O)c1ccccc1F	.	1	3	-2	.	.	-5	.
Cc1nc2c(sc3nc(N4CCOCC4)c4c(c32)CC(C)(C)OC4)c(-c2ccc(Cl)cc2)c1C(=O)O	40	.	-15	-13	91	39	10	i	eIF4H inh retest=-6;PABP FP inh retest=10

Additional records
SMILES	CSC inhib	Yeast UUG start	MT1-MMP act inh	MT1-MMP act inh RFP	eIF4H inh	PABP FP inh	HIV Env fusion	Rce1 inh	others
COc1ccc(NC(=S)N2CCc3ccccc3C2)cc1OC	-7	-15	2	2	-4	13	2	i
Cc1ccc(C(=O)NCC(=O)Nc2ncccc2C)s1	-1	-13	3	2	.	.	0	i
Clc1ccc(-c2ncc3ccccn23)c(Cl)c1	-4	.	-1	1	-1	5	-12	i
CC(C)C(c1nnnn1Cc1ccccc1)N(Cc1ccco1)Cc1cccs1 (configuration not stated)	45	-3	-4	-8	-14	10	.	i
CCOC(=O)CC(NC(=O)c1ccco1)c1ccc(C)cc1 (configuration not stated)	-8	-7	0	-1	-5	4	-206	i
CCCCNC(=O)CCCCC(=O)N/N=C/c1cccc(Cl)c1	3	.	4	-2	11	12	2	i
Cc1ccc(NC(=O)c2c([N+](=O)[O-])c(C(C)(C)C)nn2C)cc1	-1	.	1	4	-8	-5	.	i
COC(=O)c1cc(S(=O)(=O)N2CCOCC2)c(N2CCOCC2)cc1N1CCOCC1	.	-5	2	7	0	6	.	.
CC(C)(C)NC(=O)COC(=O)c1cc(Cl)ccc1[N+](=O)[O-]	-8	1	3	4	0	1	-2	i
CN(C)c1nc(-c2ccc([N+](=O)[O-])cc2)cs1	-10	-11	2	-11	-4	-10	.	i
CC(=O)Nc1ccc(NC(=O)Nc2cccc(Cl)c2)cc1	7	-21	2	-4	0	15	2	i
CC(=O)CC(=O)Nc1ccc2ccccc2c1	-7	4	-3	1	-6	0	0	i
Nc1c(C(=O)NCCN2CCOCC2)c2nc3ccccc3nc2n1-c1ccc2c(c1)OCO2	18	-21	-8	4	36	31	.	i
CC(C)C(=O)Nc1ccc(O)c(-c2csc(N)n2)c1	-15	13	6	3	-5	3	-7	i
COc1ccc(NC(=O)c2noc3c2CCC3)cc1	11	-49	3	5	107*	52*	-243	i
C/C(=N/OC(=O)c1ccc(Br)cc1)c1ccc(C)cc1	1	-14	0	1	5	2	-6	i
CC1Oc2ccccc2N(CC(=O)NCCc2ccccc2)C1=O (configuration not stated)	-6	-13	3	-2	8	0	3	i
Cc1cc(C(=O)COc2ncnc3sccc23)c(C)n1C1CC1	-7	-7	-2	0	9	-8	.	i
CC(=O)Nc1nn(C)c2nc(C)cc(C)c12	-8	-11	5	5	-4	-5	-7	.
O=C(Cn1cnc2c(nnn2Cc2ccc(Cl)cc2)c1=O)NCc1ccco1	6	-14	1	-1	-8	-16	.	i
CN1CCC(OC(=O)c2cc3cc(Br)ccc3oc2=O)CC1	47	-3	-1	0	15	6	7	.
O=c1c2ccccc2oc2ccc(NCCCn3ccnc3)cc12	0	-48	-17	2	19	6	-51	i
Cc1ccc(S(=O)(=O)Nc2n[nH]nc2C(=O)NC2CCCCC2)cc1	-11	.	0	-1	-1	-2	6	i
CCN(CC)c1ccc(/C=N/NC(=O)c2ccoc2C)c(O)c1	43	-13	.	.	4	-16	-176	i
CCOC(=O)c1c(S(=O)(=O)NCC(=O)Nc2ccccc2F)c(C)n(C)c1C	8	-13	-2	2	.	.	-2	i

Quoted at random: five compounds from above, in no set order.
SMILES	CSC inhib	Yeast UUG start	MT1-MMP act inh	MT1-MMP act inh RFP	eIF4H inh	PABP FP inh	HIV Env fusion	Rce1 inh	others
Nc1c(C(=O)NCCN2CCOCC2)c2nc3ccccc3nc2n1-c1ccc2c(c1)OCO2	18	-21	-8	4	36	31	.	i
CC(=O)CC(=O)Nc1ccc2ccccc2c1	-7	4	-3	1	-6	0	0	i
Cc1ccc(NC(=O)c2c([N+](=O)[O-])c(C(C)(C)C)nn2C)cc1	-1	.	1	4	-8	-5	.	i
CN(C)c1nc(-c2ccc([N+](=O)[O-])cc2)cs1	-10	-11	2	-11	-4	-10	.	i
Clc1ccc(-c2ncc3ccccn23)c(Cl)c1	-4	.	-1	1	-1	5	-12	i

More records
SMILES	CSC inhib	Yeast UUG start	MT1-MMP act inh	MT1-MMP act inh RFP	eIF4H inh	PABP FP inh	HIV Env fusion	Rce1 inh	others
Cc1ccc(S(=O)(=O)N2CCC(C(=O)Nc3ccc(C(C)C)cc3)CC2)cc1	75*	-17	5	-10	.	.	.	.
Nc1ccc(O)c2c1C(=O)c1ccccc1C2=O	-9	-11	59	56	123	4	.	i	eIF4H inh retest=6;PABP FP inh retest=2
Cc1ccc(-c2ccc(=O)[nH]n2)cc1	-11	.	1	6	-3	-8	56*	i
COc1ccc(/C(N)=N/OC(=O)CCc2ccccc2)cc1	-3	-16	2	2	-9	-8	-4	i
CC1(C)CC(=O)C(C=NCC(N)=O)=C(O)C1	-3	-17	2	7	9	-1	.	i
O=C(CSc1nc(-c2ccccc2)cc(=O)[nH]1)Nc1ccccc1	-4	-8	0	2	-6	1	2	i
Cc1ccc(C(=O)NCC(=O)NCCCc2ccccc2)cc1	-15	-13	1	4	-6	-9	4	i
COc1cc(/C=C/C(=O)OCC(=O)N2CCCc3ccccc32)ccc1O	-15	-8	4	3	.	.	2	.
O=C(Nc1ccc(Cl)cn1)c1ccc2ccccc2n1	-1	-7	-2	0	6	16	.	i
CCc1cc(=O)oc2cc(OC(C)=O)cc(OC(C)=O)c12	-8	.	4	-6	-7	6	.	i
CSCC[C@H](NC(=O)[C@@H]1Cc2ccccc2CN1)C(=O)Nc1ccc2c(c1)OCO2	0	-21	1	5	3	2	-12	i
O=C(CN1c2cccc3cccc(c23)S1(=O)=O)NCc1ccc2c(c1)OCO2	-7	-5	-17	3	4	4	.	i
O=C1CC(N2CCN(c3ccccc3)CC2)C(=O)N1c1ccc2c(c1)OCCO2 (configuration not stated)	.	-4	-2	3	3	-3	-23	.
CCN(CC(=O)Nc1ccccc1OC)C(=O)c1ccc2[nH]c3c(c2c1)CC(C)CC3 (configuration not stated)	.	-21	1	-2	.	.	10	.
O=C(c1cccc(C(F)(F)F)c1)N1CCc2c([nH]c3ccccc23)C1C(F)(F)F (configuration not stated)	51	.	-2	-6	-1	-3	86*	i
Cc1ccc2c(c1)N(C(C)C(=O)NCCc1ccccc1)C(=O)CO2 (configuration not stated)	-14	-4	-5	-1	-7	6	-67	i
Cc1ccc(C)c(NC(=O)/C(C#N)=C/c2ccc(Sc3nncn3C)c([N+](=O)[O-])c2)c1	8	.	.	.	2	-7	.	.
Cc1cc(C)nc(N2CCCC(C(=O)NCc3cccs3)C2)n1 (configuration not stated)	-16	-9	1	3	-9	-6	.	i
O=C1NC(=S)S/C1=C\c1coc2ccc(O)cc2c1=O	6	-8	-4	7	6	16	-5	i
COc1ccc(-c2nnc(COc3ccc(Br)cc3C)o2)cc1	4	-18	2	0	.	.	6	i
CC(=O)c1ccc(NC(=S)N2CCN(c3ccccn3)CC2)cc1	5	-20	2	-1	3	-4	-7	i
COc1ccc(/C=N/NC(=O)CCc2ccccc2)cc1O	14	-24	-3	1	-6	0	-7	i
O=C(NC1CCCc2ccccc21)C12CC3CC(CC(O)(C3)C1)C2 (configuration not stated)	8	.	4	4	4	7	4	i
O=C(COC(=O)COc1ccc(Cl)cc1Br)NC1CCCCCC1	5	-18	-4	-2	.	.	6	.
O=S(=O)(Cc1ccc(Cl)cc1)C1CCCCC1O (configuration not stated)	-3	.	0	-4	-2	14	4	i

More records
SMILES	CSC inhib	Yeast UUG start	MT1-MMP act inh	MT1-MMP act inh RFP	eIF4H inh	PABP FP inh	HIV Env fusion	Rce1 inh	others
Cc1cccc(C)c1OCC(O)CN1CCN(C(=O)c2ccccc2)CC1 (configuration not stated)	.	-5	0	2	.	.	17	.
O=C(COC(=O)CC1CC2CCC1C2)Nc1c(F)cccc1F (configuration not stated)	-8	.	0	3	-10	4	8	i
CC(=O)Nc1ccc(S(=O)(=O)N(C)CC(=O)Nc2ccccc2N2CCCC2)cc1	-7	6	3	3	.	.	-11	i
CC1=C(C(=O)OC2CCCCC2)C(c2ccccc2Br)NC(=O)N1 (configuration not stated)	-22	-16	3	-2	1	13	8	i
O=C(NNC(=O)c1sccc1-n1cccc1)Nc1ccc(F)cc1	-12	.	5	-2	2	-4	-5	i
O=C(COC(=O)/C=C/c1ccccc1Cl)NCC1CCCO1 (configuration not stated)	-16	-9	-2	4	.	.	38	.
CCCn1c(N)c(Sc2ccc([N+](=O)[O-])cc2)c(=O)n(CCC)c1=O	-9	.	3	4	6	2	2	.
O=C(c1ccccc1Cl)N1CCc2ccccc2C1	5	-25	4	2	0	1	-32	i
